Screening data deposited in PubChem by National Center for Advancing Translational Sciences (NCATS).
Menin-MLL FL inh: menin-MLL binding inhibition, fluorescein peptide | AID 1766 | FP activity change, % at 61.4 µM | Fluorescence polarization, fluorescein-MLL peptide displacement from menin | 290,000 tested, under 10 active; inconclusive = falling polarisation curve, or a change in total fluorescence; inactive = total fluorescence flat and polarisation flat or rising; no compound was filed as active; the % refers to the polarisation; negative = inhibition;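 note: % of control where 0% means no effect; inhibitors lower the polarisation; unlabelled MLL peptide was the positive control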
Sfp PPTase inh: Sfp phosphopantetheinyl transferase inhibition; Q9F4F7; Biochemical Sfp PPTase activity, qHTS; Potency, µM, for the others: max response, negative = inhibition, actives largely listed as inhibitors; 3.5% of 310,000 active; active = well fitted inhibition curve with a large enough effect; inconclusive = small, poorly fitted or top-dose-only effect, or another doubt; inactive = no such curve, though single readings can be large or run the other way;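 note: the enzyme is Sfp with the accession as filed and its product quenches rhodamine fluorescence; potency is the fitted concentration of half-maximal effect; 0% = enzyme reaction without inhibitor and -100% = no enzyme wells; top concentration of the series not given in the record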
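Fluorescence-quenching assay with 15 nM Sfp, 5 uM rhodamine-CoA and 12.5 uM BHQ-2-labelled ybbR peptide in pH 7.6 Hepes/MgCl2 buffer. Enzyme was pre-incubated with compound for 15 min at room temperature. Rate was taken from the 30-min fluorescence change (525/598 nm).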
D2 potentiator: potentiates the human D2 dopamine receptor allosterically | P14416 | DiscoveRx D2 beta-arrestin cells, luminescence, 90 min; 100% = 57 uM dopamine signal | potentiation, % (test concentration not listed) | 0.23% of 360,000 active; active = potentiation of 50% or more; inconclusive = 30% to 50%; inactive = 30% or less;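 note: compound concentration not given in the record; tested on top of an EC20 dose of dopamine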
Target sequence (P14416 whole entry, looked up): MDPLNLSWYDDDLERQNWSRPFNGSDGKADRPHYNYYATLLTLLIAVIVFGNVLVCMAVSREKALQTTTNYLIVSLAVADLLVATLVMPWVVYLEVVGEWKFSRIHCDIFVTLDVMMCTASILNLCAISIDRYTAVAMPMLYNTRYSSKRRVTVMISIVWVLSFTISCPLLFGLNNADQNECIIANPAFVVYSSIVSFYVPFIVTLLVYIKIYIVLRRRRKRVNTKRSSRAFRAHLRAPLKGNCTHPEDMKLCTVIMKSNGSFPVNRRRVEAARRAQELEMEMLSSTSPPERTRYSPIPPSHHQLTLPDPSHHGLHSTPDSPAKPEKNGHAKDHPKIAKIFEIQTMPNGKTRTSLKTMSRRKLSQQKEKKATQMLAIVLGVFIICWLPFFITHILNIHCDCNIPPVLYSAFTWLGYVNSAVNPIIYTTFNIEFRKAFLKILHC
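PathHunter D2 cells, attached overnight at 37 deg C, received compound in DMSO plus dopamine at EC20 (50 nM final) for 90 min at 37 deg C. Beta-arrestin recruitment was read as luminescence after 1 h with detection reagent at ambient temperature.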
ClpP mod: qHTS Assay for Activators of ClpP; purified B. subtilis ClpP, FRET peptide cleavage, 20 min; Potency, µM (highest dose often 57.5 µM), for the others: top-dose activity change, negative = active; 1.9% of 340,000 active; active = well fitted falling curve with a large enough effect; inconclusive = small, poorly fitted or top-dose-only effect; inactive = no such curve, though single readings can be large or run the other way; note: potency is the fitted concentration of half-maximal effect; the source files actives as falling curves though it sought activators and does not explain the sign; nearly all actives have a fitted effect of over 65% in size; many hits overshoot -100%
Target sequence (P80244 whole entry, looked up): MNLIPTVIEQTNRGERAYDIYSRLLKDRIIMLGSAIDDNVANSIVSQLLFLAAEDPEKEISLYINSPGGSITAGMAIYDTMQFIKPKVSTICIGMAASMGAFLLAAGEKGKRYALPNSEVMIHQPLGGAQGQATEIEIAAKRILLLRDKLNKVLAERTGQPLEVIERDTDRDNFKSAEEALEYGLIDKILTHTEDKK
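Buffer: 100 mM Tris/HCl pH8, 100 mM KCl, 0.05% low protease BSA, 2.5% glycerol, 0.01% Tween-20. ClpP 10 microg/mL final; 20 min RT; delta FRET normalized to ADEP and DMSO controls.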
TRPV1 potentiator: potentiators of human vanilloid receptor 1 (TRPV1); Q8NER1; TRPV1-expressing cells, Fluo-8 calcium influx, capsaicin EC20 potentiation; host cell line not named in the record; control for the full effect not named in the record; potentiation, % at 8.33 µM; 0.02% of 320,000 active; active means potentiation above 80%; inconclusive means 30% to 80%; inactive means below 30%; note: 0% is about no effect
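Cells expressing TRPV1 were dye-loaded with Fluo-8 and read kinetically: 10 s baseline, 3 min after compound (agonist portion), then 2 min after EC20 capsaicin (allosteric enhancer portion). Calcium-bound dye fluorescence at 480/520 nm.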
gsp ag: activates gsp, the McCune-Albright syndrome mutation; gsp mutant cells, cAMP HTRF, 30 min; control for the full effect not named in the record; Potency, µM (titrated, usually from 76.9 µM), for the others: at the highest dose activation (cAMP increase), actives largely listed as activators; 0.13% of 340,000 active; active = well fitted activation curve with a large enough effect; inconclusive = small, poorly fitted or top-dose-only effect, or another doubt; inactive = no such curve, though single readings can be large or run the other way; cell line not stated here;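 note: phosphodiesterase inhibitor Ro 20-1724 added with compounds to block cAMP breakdown; potency is the fitted concentration of half-maximal effect; nearly all actives have a fitted effect of over 60% in size; about a fifth of the inactives were tested at one dose only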
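Cells stably selected in G418 were plated at 2000/well, grown 16-24 hr, then given compounds in DMSO with the PDE inhibitor […] (300 uM solution added) for 30 min at 37C; cAMP was read by HTRF.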
gsp antagonist: gsp mutant antagonism | gsp-mutant cells, cAMP HTRF, 30 min; control for the full effect not named in the record | 0.4% of 340,000 active | Potency, µM (top dose mostly 76.9 µM), inactives show top-dose activity change, negative = inhibition, hits mostly inhibitors; active = falling curve of any shape with a large fitted effect; inconclusive = falling curve, mostly with a smaller effect; inactive = flat or rising curve; cell line not stated here;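 note: intracellular cAMP measured with PDE inhibitor Ro 20-1724 present during compound exposure; potency is the fitted concentration of half-maximal effect; % is set by controls: 0 for no effect and ±100 for the full control effect; nearly all actives have a fitted effect of over 65% in size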
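Cells, 2000/well, grown 16–24 h in DMEM 10% FBS with 0.5 mg/ml G418, then compounds plus […] (300 uM addition stock), 30 min at 37C. cAMP read by HTRF (cAMP-d2 and anti-cAMP antibody-K in lysis buffer) after 30 min RT.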
Active calls of the source: *; u = inconclusive; x = not tested or not shown; + = active, no number; & = joins results of further samples; [ ] = another dose, or the depositor's remark. Compounds were not picked by outcome. About 5.1% of those tested had a hit in this group.

Values run as follows: Menin-MLL FL inh | Sfp PPTase inh | D2 potentiator | ClpP mod | TRPV1 potentiator | gsp ag | gsp antagonist
CC(C)CNC(=S)NNC(=O)c1ccco1
    -0.3 | -13% | -1 | 6.4% | 29 | -16% | 3%
Cc1ccccc1NS(=O)(=O)c1nnc(NC(=O)c2ccc(Br)cc2)s1
    x | 33%[activator] | -7 | -2.1% | -5 | u | u
COc1ccc([N+](=O)[O-])cc1NCc1c(F)cccc1F
    x | x | -4 | -2.7% | x | 20% | x
Cc1cc(-c2nnc(CSc3nnc(NC(=O)c4ccc(C(C)(C)C)cc4)s3)o2)ccc1[N+](=O)[O-]
    -1.9 | -1% | -3 | -3.8% | -4 | 6%[15.4 µM] | -1%
NC(=O)c1ccc(NC(=O)COC(=O)CCC2CCCC2)cc1
    x | x | -5 | 0.6% | x | -1% | x
NC(=O)c1ccccc1NC(=O)CSc1nc2ccccc2c(=O)[nH]1
    x | -8% | -4 | -1.6% | 16 | 3% | -6%
CCOC(=O)c1c(CN(CC)CC)n(-c2ccccc2)c2ccc(O)cc12
    -0.2 | 0% | -13 | x | -26 | -38%[inhibitor] | -1%
CC(C)C(=O)Nc1oc(-c2ccccc2)cc1C#N
    -0.7 | 8% | -2 | x | -19 | 24%[15.4 µM] | x
Cn1cccc1C(=O)NC(=O)COC(=O)CCNS(=O)(=O)c1ccc(Cl)cc1
    x | x | 1 | -3.4% | x | -7% | -4%
CCn1c(C)nc2c(C)[n+](CC(=O)c3ccc(Br)cc3)ccc21
    0.5 | 0% | -5 | x | -8 | 27% | -1%
CC(C)On1c(SCC(=O)N(C)C)nc2ccccc2c1=O
    0.8 | -4% | 3 | -1.5% | -2 | 10% | 8%
O=C(O)CSCC(=O)N1CCCN(c2nc3ccc(Cl)cc3s2)CC1
    1.7 | 26% | -4 | -17% | -2 | 0%[15.4 µM] | 5%
Cc1ccc2cc(CCNC(=O)C(C)C)c(=O)[nH]c2c1
    2.6 | 25% | -8 | u | 10 | u | -1%
Cc1nc2ncnn2c(C)c1CCC(=O)Nc1ccc(S(=O)(=O)N2CCCCCC2)cc1
    -0.2 | 5% | -4 | 0.7% | x | -3% | -23%
CCC(=O)Nc1ccc(/C(C)=N\NC(=O)c2ccc(OC)cc2)cc1
    4.3 | 28% | -6 | 1.5% | 3 | -5% | 1%
CCOC(=O)C1CCN(C(=O)c2ccc3c(c2)S(=O)(=O)c2ccccc2C3=O)CC1
    x | 9% | 4 | x | 5 | -5%[15.4 µM] | 0%
O=C(COc1nsnc1N1CCOCC1)Nc1ccc(Cl)cc1
    1.3 | 12% | -2 | -1.5% | 1 | -50%[inhibitor] | -3%
Cc1cc(C)cc(Nc2c3c(nc4ncnn24)CCC3)c1
    -4.3 | -1% | -1 | x | 2 | -14%[15.4 µM] | -7%
COc1ccc(CNC(=O)c2ccc(CS(=O)(=O)c3ccc(C)cc3)o2)cc1
    x | 13% | -5 | 0.6% | 16 | -7% | 0%
Cn1c2c(sc1=O)CCC2
    x | x | -6 | x | x | 52% | 9%
OCCN1CCN(c2nc3ccccc3nc2-c2ccccc2)CC1
    -5.7 | 5% | -21 | -9.6% | -4 | -38%[inhibitor] | -10%
CC1C(=O)Nc2ccc(S(=O)(=O)N3CCN(c4ccccc4F)CC3)cc2NC1=O (stereo not given)
    -4.4 | 2% | 4 | -1.3% | -2 | -11% | 8%
Cc1cccc(C(=O)NCC(=O)OCC(=O)c2ccc(Br)s2)c1
    x | x | -19 | -2.3% | x | u | 21%
CC(NC(=O)c1cccc(S(=O)(=O)N2CCN(Cc3ccccc3)CC2)c1)c1ccccc1Cl (stereo not given)
    x | x | -11 | -1.3% | x | -72%[inhibitor] | +
CCOC(=O)N1CCC(NS(=O)(=O)c2ccc3c(c2)OCC(=O)N3)CC1
    -3.4 | 20% | -3 | 0.0% | 3 | -3% | 2%
CC(C)(C)C(=O)Nc1nc(C2CCCN2S(=O)(=O)c2ccc(Cl)cc2)cs1 (stereo not given)
    -0.3 | -3% | 6 | 0.6% | 7 | u | -21%
COc1ccc(CNC(=O)c2ccc(NS(=O)(=O)c3c(C)noc3C)cc2)cc1
    -0.8 | 4% | -8 | -2.8% | -4 | 8% | 1%
Cn1cc(-c2ccccc2C(N)=O)c(=O)c2ccccc21
    -0.5 | 18% | -1 | x | 13 | 6%[15.4 µM] | 9%
O=S(=O)(Nc1ccc(Cl)cc1)c1ccc2c(c1)CCO2
    5.4 | 24% | -6 | x | 6 | 6% | -9%
O=C(c1cccn2c(=O)c3cc4ccccc4cc3nc12)N1CCN(c2ccccc2)CC1
    u | 14% | x | x | 10 | x | x
Cc1c(NS(=O)(=O)c2cccs2)c(=O)n(-c2ccccc2)n1C
    1.5 | 19% | -1 | -12% | 3 | -37%[inhibitor] | 1%
CC1CN(S(=O)(=O)c2ccc(Cl)c(C(F)(F)F)c2)CC(C)O1 (stereo not given)
    1.3 | 10% | -15 | 2.0% | u | 3% | -7%
CC(OC(=O)c1ccc(C(C)(C)C)cc1)C(=O)NC1CCCCC1C (stereo not given)
    x | -4% | -24 | -1.7% | -10 | -8% | -10%
Cc1cc(C)c(OCCCNCc2ccccc2)c(Br)c1
    -1.5 | -24% | -78 | 0.4% | -13 | 9% | 11%
CN(Cc1ccccc1F)C(=O)CN1C(=O)NC2(CCc3ccccc32)C1=O (stereo not given)
    x | x | 2 | -2.1% | 0 | -4%[15.4 µM] | 9%
Cc1nc(CSc2nnc3scc(-c4ccccc4)n23)cs1
    -0.6 | 8% | 1 | -3.0% | 2 | u | 8%
CCOC(=O)c1cc(C#N)c(Nc2ccc(C)cc2)nc1C(F)(F)F
    -1.3 | -6% | -10 | -2.7% | -21 | -7%[15.4 µM] | 5%
COCCCNC(=S)NC1CC2CCCC(C1)N2Cc1cccs1 (stereo not given)
    0.3 | 16% | -38 | -3.5% | x | -8% | 2%
COc1ccc(C2NC(=O)C(C#N)=C(S)N2c2ccccc2)cc1OC (stereo not given)
    -0.5 | 20µM* | -7 | x | 15 | -8%[15.4 µM] | -7%
CCOC(=O)C1C(=O)CC(C)(O)C(C(=O)OCC)C1c1ccc(SC)cc1 (stereo not given)
    -2.5 | 1% | -8 | -3.5% | 0 | -81%[inhibitor] | 2%
CC(=O)Nc1nc2c(C)cc(NC(=O)C3CCCCC3)cc2s1
    x | 4% | -4 | x | 2 | 1%[15.4 µM] | 13%
Cc1csc(NC(=O)c2c(-c3c(F)cccc3Cl)noc2C)n1
    x | x | 0 | -7.3% | 5 | -17% | -2%
O=C1C(Cl)=C(N2CCN(Cc3ccccc3)CC2)C(=O)N1c1ccccc1
    1.2 | 8% | -15 | 1.3% | 3 | 1% | 3%
CC(=O)c1ccc(NC(=O)COC(=O)c2ccccc2Sc2ccccc2C#N)cc1
    -0.8 | -9% | -2 | -6.2% | 18 | -16% | u
CCCCN1C(=O)C(CC(=O)NC2CC2)CC(C(=O)N2CCOCC2)=C1C (stereo not given)
    x | x | 1 | 1.2% | x | -28% | x
Cc1cccc2c(C(=O)N3CCN(c4ccccc4)CC3)cc(-c3ccncc3)nc12
    x | -7% | 0 | -2.2% | 10 | -15% | 29%
COc1cc2c(cc1OC)CN(C(C)C(=O)Nc1cccc(S(=O)(=O)N3CCOCC3)c1)CC2 (stereo not given)
    x | x | -31 | -4.1% | -22 | 10µM* | -13%
CC1CCN(C(=O)COC(=O)c2n[nH]c(=O)c3ccccc23)CC1
    x | x | -5 | -2.5% | -13 | -11% | 5%
CCOC(=O)COn1c(=O)c(-c2ccccc2)[n+]([O-])c2ccccc21
    1.0 | 15% | 1 | x | -14 | 22% | -7%
COc1ccc(CC(=O)NNc2ncnc3c2cnn3-c2ccccc2)cc1
    -1.2 | -21% | -2 | -3.5% | -34 | 0% | -14%

Later entries
Values run as follows: Menin-MLL FL inh | Sfp PPTase inh | D2 potentiator | ClpP mod | TRPV1 potentiator | gsp ag | gsp antagonist
Cc1cc(=O)oc(C)c1C(=O)NCCc1ccccc1
    -5.7 | -15% | -5 | 1.2% | x | 9% | 7%
S=c1[nH]nc2n1CCCN2
    1.1 | 14% | -20 | -0.9% | 5 | 1%[15.4 µM] | 4%
Cn1c(=O)c2c(nc(N3CCOCC3)n2CC(=O)C23CC4CC(CC(C4)C2)C3)n(C)c1=O
    2.0 | 2% | -11 | -0.5% | 3 | 0% | -9%
CCCCN(CCCC)CCNC(=O)c1cn(CC)c2ccc(S(=O)(=O)N3CCc4ccccc4C3)cc2c1=O
    -8.2 | 10% | -8 | -2.6%&2.7% | -8 | -4% | 2%
Cc1ccc(C)c(N2CCN(c3ncnc4c3cnn4-c3ccccc3)CC2)c1
    -8.9 | -12% | -6 | u | 4 | 0% | 2%
CCN(CC)C(=O)CC(c1ccc2c(c1)OCO2)c1c(O)cc(OC)cc1OC (stereo not given)
    u | 18%&10% | -4 | -0.6% | 19 | x | -9%
CCc1ccccc1NC(=O)[C@@H]1CCC(=O)N1C1OC(=O)c2c1ccc(OC)c2OC (stereo not given in full)
    -7.1 | 9% | -1 | -18% | 7 | -16% | 3%

Molecules listed so far with a nitro group on carbon:
Values run as follows: Menin-MLL FL inh | Sfp PPTase inh | D2 potentiator | ClpP mod | TRPV1 potentiator | gsp ag | gsp antagonist
COc1ccc([N+](=O)[O-])cc1NCc1c(F)cccc1F
    x | x | -4 | -2.7% | x | 20% | x
Cc1cc(-c2nnc(CSc3nnc(NC(=O)c4ccc(C(C)(C)C)cc4)s3)o2)ccc1[N+](=O)[O-]
    -1.9 | -1% | -3 | -3.8% | -4 | 6%[15.4 µM] | -1%
